Bioassay records: PubChem BioAssay, several laboratories
Mtb growth – M. tuberculosis H37Rv growth inhibitors, H37Rv strain (AID 1626); M. tuberculosis H37Rv growth inhibition; higher % means a stronger effect; one-dose inhibition, % at 10 µM; IC50 in µM for titrated hits; 0.95% of 220,000 active;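 active = confirmed in a dose series; inconclusive = inhibition above 80% but not taken into the dose series; inactive = below 80% or under 30% at every dose of the series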;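 also: bacteria incubated seven days before Alamar blue readout; 0% = bacteria only wells and 100% = bacteria with antibiotic wells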
YopH PTP inh – YopH tyrosine phosphatase inhibitors, primary screen, biochemical, fluorescence Ex485/Em525; 0.16% of 140,000 active; inhibition, %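 (about 10 µM by stock and volumes)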; YopH tyrosine phosphatase [Yersinia enterocolitica]; AID 898, 2007;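 active = inhibition of 50% or more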;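 also: controls were vehicle for no effect and minimum signal wells for full effect; inactives centre near -20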
RecA splice inh – Mtb RecA intein splicing inhibitors, primary screen, biochemical, fluorescence, HTS | cell-free RecA intein splicing | 0.75% of 290,000 active | Protein RecA (Mycobacterium tuberculosis (strain ATCC 25618 / H37Rv)), P9WHJ3 | inhibition, %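 (about 9 µM by stock and volumes)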; in the data active = inhibition above about 30%; inconclusive = no clear call, values can overlap the other calls;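 also: 0% = vehicle wells and 100% = reference inhibitor control wells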
Target sequence (P9WHJ3 whole entry, looked up, canonical isoform): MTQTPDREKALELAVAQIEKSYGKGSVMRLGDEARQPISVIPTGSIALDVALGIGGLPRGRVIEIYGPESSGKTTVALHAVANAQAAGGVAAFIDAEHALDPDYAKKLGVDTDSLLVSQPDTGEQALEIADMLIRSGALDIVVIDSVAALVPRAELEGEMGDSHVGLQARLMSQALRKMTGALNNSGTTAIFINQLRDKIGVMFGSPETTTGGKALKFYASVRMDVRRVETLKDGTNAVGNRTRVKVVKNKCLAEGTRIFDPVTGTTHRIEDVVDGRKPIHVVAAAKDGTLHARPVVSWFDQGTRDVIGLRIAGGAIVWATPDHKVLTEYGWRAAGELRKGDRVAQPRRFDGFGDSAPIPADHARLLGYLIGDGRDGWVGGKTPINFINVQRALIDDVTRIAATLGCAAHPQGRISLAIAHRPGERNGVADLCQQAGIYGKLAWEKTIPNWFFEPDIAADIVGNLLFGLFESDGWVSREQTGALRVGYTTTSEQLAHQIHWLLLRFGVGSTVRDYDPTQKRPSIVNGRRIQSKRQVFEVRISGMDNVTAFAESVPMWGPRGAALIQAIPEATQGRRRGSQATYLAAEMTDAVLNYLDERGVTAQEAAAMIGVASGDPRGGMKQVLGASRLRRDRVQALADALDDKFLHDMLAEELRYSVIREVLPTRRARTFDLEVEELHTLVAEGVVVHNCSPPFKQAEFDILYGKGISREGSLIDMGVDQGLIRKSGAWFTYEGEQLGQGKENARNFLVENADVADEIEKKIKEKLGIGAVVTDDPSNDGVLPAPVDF
Mtb bLac sens – beta-lactam sensitization of Mtb H37Rv, H37Rv. M. tuberculosis H37Rv growth with meropenem, percent inhibition; hits of this screen are not shown here. inhibition, % at 25 µM. 0.27% of 330,000 active;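 active = about 74% or more and at least 40 points above the plate without the antibiotic, then above 30% in a dose series; inconclusive = first-round hits that could not be retested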;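 also: growth measured after seven days incubation then overnight dye step; 0% = bacteria only wells and 100% = bacteria with antibiotic; twin plates without the antibiotic show which effects depend on it; some results filed as inactive read as strong as hits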
Arbovirus inh – antivirals against arbovirus infection, primary screen, cell-based, full library, 10K replicate subset; arbovirus infection cell-based antiviral screen; inhibition, % at 10 µM; 0.37% of 200,000 active;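 active = inhibition from about 30%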;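 also: bluetongue infection of BSR cells; cell survival read as ATP light after 72 h; 0% = infected wells without compound and 100% = uninfected wells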
Arbovirus inh repeat – also measured in Arbovirus inh; calls as there; inhibition, %; measured here: 10K subset replicate screen; many hits read low in the repeat;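 first of two repeat runs on a subset; 0% = infected and 100% = uninfected wells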
Starred values were filed as active, the others as inactive; ? = inconclusive; / = no result given.

SMILES	Mtb growth	YopH PTP inh	RecA splice inh	Mtb bLac sens	Arbovirus inh	others
O=C(/C=C/c1ccco1)Nc1nc(-c2ccc(F)c(F)c2)cs1	11%	/	1.5	49	/
CC(=O)CC(=O)Nc1ncccn1	5%	/	-2.3	3	4
Cc1cccc(OCCSc2nc3c([nH]2)c(=N)ncn3Cc2ccccc2)c1	0%	-29	7.1	-3	11
O=C(NC(=S)Nc1ccccc1Br)C1CC1	/	/	2.5	-5	/
CS(=O)(=O)N(CC(=O)Nc1ccc2c(c1)OCCO2)Cc1ccc(Cl)cc1	23%	-27	3.7	-7	11
CCC(C)Nc1cc(C)nc2ncnn12 (centres undefined)	-4%	/	2.6	3	-1
NC(=O)c1ccc(NC(=O)CCCNC(=O)c2ccc(Cl)cc2)cc1	/	/	0.3	-2	/
Cc1ccc2[nH]c(=O)c(COC(=O)c3cccs3)cc2c1	-5%	-18	-1.8	-7	1
CCOc1ccccc1NC(=O)NS(=O)(=O)c1ccc(C)cc1	-26%	-6	-0.5	-20	7
COc1ccccc1CNC(=O)COc1ccc(C)nc1[N+](=O)[O-]	-4%	/	1.6	0	3
O=C(CSc1ccc(Cl)cc1)Nc1nnc(-c2cccc([N+](=O)[O-])c2)s1	13%	-18	-1.6	73	-9
O=S(=O)(NCc1ccc(Cl)cc1)c1cccc2cccnc12	/	/	1.1	2	/
N#CC1(NC(=O)CSc2n[nH]c(-c3ccccc3)n2)CCCCC1	/	/	-6.5	-11	/
O=S(=O)(Nc1ccc2c3c(cccc13)CC2)c1ccc(F)cc1	9%	-39	6.3	49	2
O=C(c1ccc(F)cc1)N1CCCC(C(=O)N2CCN(c3ccccc3)CC2)C1 (centres undefined)	-13%	/	1.9	0	/
CCOC(=O)C1(CC2CCCCO2)CCN(Cc2nccn2-c2cccc(C)c2)CC1 (centres undefined)	12%	/	/	-5	14
CC(C)n1c2ccccc2c2nnc(SCC(=O)Nc3ccccc3C(=O)O)nc21	13%	/	-1.3	8	7
COc1ccc(-n2c(=O)[nH]c3ccccc3c2=O)c(OC)c1	-6%	-34	0.2	-3	-2
CSc1ccc(/C=C(/NC(=O)c2ccc(C)cc2)C(=O)Nc2cccc(C)c2)cc1	5%	-25	-1.0	6	1
CCOC(=O)C1(CC2CCCCO2)CCN(S(=O)(=O)c2c(C)nn(C)c2C)CC1 (centres undefined)	1%	/	-0.2	3	-4
O=C(c1ccc(NS(=O)(=O)c2ccc(Cl)cc2)cc1)N1CCOCC1	/	/	1.5	-5	/
Cc1nnc(NC(=O)C2CC(=O)N(c3ccccc3)C2)s1 (centres undefined)	/	/	-1.9	4	/
Cc1ccc(C(=O)CSc2nnc(COc3ccccc3)o2)cc1	3%	/	1.1	29	1
CC(NC(=O)c1cccc2ccccc12)c1ccc2c(c1)CCCC2 (centres undefined)	20%	-3	-2.0	8	2
CCOC(=O)c1[nH]c2ccc(OC)cc2c1NC(=O)CN1CCSCC1	-4%	-32	/	0	-4
O=C(CN1CCN(C(c2ccccc2)c2ccccc2)CC1)N1CCOCC1	-4%	-36	10	5	-1
O=C(Nc1nnc(CCN2CCCCC2)s1)c1ccccc1Cl	-6%	/	-1.8	-4	-4
OCCNc1nc2ccccc2nc1NCCO	-1%	/	-0.1	1	/
COc1ccc(OC)c(/C=N/NC(=O)Cn2ccnc2C)c1	3%	/	-2.4	-6	/
CN1CCN(c2nc(Nc3ccc(O)cc3)nc3ccccc23)CC1	13%	/	-5.6	-1	-6
CC(C)[C@@H](C(=O)NCc1ccco1)N1C(=O)N2CCc3c([nH]c4ccccc34)[C@@]2(C)C1=O	/	/	3.9	-9	/
CCOc1ccc(NC(=S)N2CCCCCC2)cc1	3%	/	1.0	7	0
O=C(O)c1ccc(-c2ccccc2)[nH]c1=O	-3%	/	0.3	-4	/
Cc1ccc(-c2noc(-c3ccccc3C(=O)NCc3ccco3)n2)cc1	4%	/	1.2	2	/
O=C(CSc1ncnc2ccccc12)NCCCO	-3%	4	6.7	-8	-1
Cc1noc(C)c1S(=O)(=O)NC1CCN(Cc2ccccc2)CC1	0%	-6	0.3	-3	0	Arbovirus inh repeat=-1
C/C(=N\NC(=O)c1ccccn1)c1ccc(Cl)cc1	4%	/	-1.3	97	/
Cn1c(=O)c2c(ncn2CCOc2ccc(F)cc2)n(C)c1=O	/	/	0.4	-3	/
COc1ccc(C(=O)CSc2ccc(-c3ccc(C)cc3)nn2)cc1	2%	-22	-2.0	?	4
O=C(NCCCl)Nc1cc([N+](=O)[O-])ccc1Cl	-8%	/	-1.2	-5	12
CNC(=O)c1nnn(Cc2ccccc2)c1NC(C)=O	-17%	-20	-1.8	-29	5
Cc1ccc(NC(=O)COC(=O)[C@H](C)N2C(=O)C3CC=CCC3C2=O)cc1S(=O)(=O)N(C)C (some centres undefined)	4%	/	2.0	-8	-6
CCOC(=O)C1=C(N)c2ccccc2CC1C(C)C (centres undefined)	-1%	12	1.2	7	5
Cc1ccc(N=Nc2ccc(O)c(P(=O)(c3ccccc3)c3ccccc3)c2)cc1	-9%	/	-0.7	-4	/
CCN1CCN(C(=O)c2cccc(OC3CCN(S(=O)(=O)N(C)C)CC3)c2)CC1	/	/	-1.0	-4	/
Cc1ccc(OCCSc2ncnc3sc(C)c(C)c23)cc1C	/	-33	-0.3	-1	-6
CC(CCc1ccccc1)NC(=O)c1cccc([N+](=O)[O-])c1 (centres undefined)	3%	-21	-0.2	3	-9
COCCN(C)Cc1nc(C(c2ccccc2)c2ccccc2)no1	/	/	3.6	1	/
O=C(CN1C(=O)NC2(CCOc3ccccc32)C1=O)Nc1ccc2c(c1)OCCO2 (centres undefined)	0%	-39	0.1	-6	-4
COc1ccccc1NC(=O)c1cc(OC)c(OC)cc1[N+](=O)[O-]	3%	/	-5.0	-6	9
CC(=O)n1cc([C@H]2C=C(C(=O)Nc3ccccc3)O[C@@H](OCCCCO)C2)c2ccccc21	0%	/	1.6	11	7
O=C(C1CCN(S(=O)(=O)c2cccnc2)CC1)N1CCN(c2ccc(Cl)cc2)CC1	3%	/	-0.1	3	/
CC(=O)c1c(C)[nH]c(C(=O)OCC(=O)NCC(C)C)c1C	0%	/	-2.6	0	18
OC1(c2ccc(F)cc2)CCN(Cc2cccnc2)CC1	/	/	-1.3	-9	/
O=C1CC(NCc2ccccc2)C(=O)N1c1ccc(F)cc1 (centres undefined)	-4%	/	/	/	0
COc1cc(/C=N\NC(=O)Cn2nnc3ccccc32)cc(OC)c1OC	1%	-13	0.3	-7	2
Cc1cc(C=C2C(=O)c3ccccc3C2=O)c(C)n1-c1ccc(C(=O)O)cc1	7%	/	3.0	2	2
Cc1nn(-c2ccccc2)c(C)c1NC(=O)c1ccc(S(=O)(=O)N2CCCC2)cc1	-2%	-56	-0.6	-9	8
N#C/C(=C\c1c[nH]c2ccccc12)C(=O)NC1CC1	/	/	3.5	2	/
COc1ccc(C(=O)NCc2ccon2)cc1OC1CCN(C(C)C)CC1	/	/	2.5	-2	/

Next records
SMILES	Mtb growth	YopH PTP inh	RecA splice inh	Mtb bLac sens	Arbovirus inh	others
Cc1noc(C)c1S(=O)(=O)Nc1ccc(C(=O)N2CCCCC2)cc1	-4%	-31	1.8	-5	7
Cc1ccc(S(=O)(=O)NC(C(=O)Oc2ccc3c(C)c(Cl)c(=O)oc3c2)c2ccccc2)cc1 (centres undefined)	?	15	-99	89	0
COCCNC(=O)CN1CCC(NC(=O)Nc2ccc(C(F)(F)F)cc2)CC1	-5%	-103	-3.4	6	-1
CC(C)NC(=O)C(Sc1ccccc1)c1ccccc1 (centres undefined)	-11%	-15	-0.4	-2	-3
CCN1CCN(C(=O)c2nn(-c3ccc(OC)cc3)c(=O)c3c2c2ccccc2n3C)CC1	-3%	-16	-1.2	1	7
Cc1[nH]c2c([N+](=O)[O-])cccc2c1C	1%	/	5.8	10	/
Cc1ccc(-c2c(CC(=O)O)c(C)nc3sc4c(c23)CCCC4)cc1	/	/	4.2	-5	/
CCc1ccc(OCc2nnc(SCC(=O)NCc3ccco3)o2)cc1	3%	-32	1.5	96	1
Cc1ccccc1N1CCN(C2CCCN(C(=O)c3cc[n+]([O-])cc3)C2)CC1 (centres undefined)	/	/	-1.3	1	/
COc1ccccc1CCNC(=O)Nc1cccc([N+](=O)[O-])c1	5%	/	2.7	-4	-11
C/C(=C\C#N)n1nc(C)cc1N	-7%	-16	-1.7	9	-2
CCOc1ccc(C2C(C#N)=C(N)SC(N)=C2C#N)cc1OCC	7%	/	-14	-15	0	Arbovirus inh repeat=-2
O=C(COC(=O)Cc1ccsc1)Nc1ccccc1	-6%	/	0.8	-8	14
CC(C)(C)c1ccc(-c2cc(-c3ccccc3O)[nH]n2)cc1	/	/	19	84	/
COc1ccccc1C(=O)NCCC(=O)NCCc1ccccc1	/	/	0.2	-4	/
COC(=O)Cc1ccc(NC(=S)NCc2ccccc2OC)cc1	-6%	/	-2.2	3	0
O=C(CCc1ccccc1)n1nc(-c2ccco2)nc1SCc1ccccc1	/	-19	/	/	-1
Cc1cc(/C=C2/SC(=O)N(CC(=O)N3CCCC3)C2=O)ccc1N1CCOCC1	1%	/	-1.9	4	2
CCOC(=O)C1CCCN(C(=O)c2ccc3c(c2)N(Cc2ccccc2)C(=O)c2ccccc2S3=O)C1 (centres undefined)	-4%	/	2.9	-9	2
Cc1ccc(NC(=S)NNC(=S)Nc2cccc(C(F)(F)F)c2)cc1	3%	/	1.6	-1	/
NC(=O)COC(=O)c1sc2ccccc2c1Cl	59%	/	-0.4	95	2
CCN(CC(=O)Nc1c(F)cccc1F)C(=O)c1ccc(Cl)c(S(=O)(=O)N2CCCCC2)c1	/	/	0.6	4	/
COc1cccc(-c2csc(N3CCN(C(=S)Nc4ccccc4Cl)CC3)n2)c1	4%	-47	10	7	-1
O=C(COC(=O)c1cc[n+]([O-])cc1)Nc1ccc(Cl)cc1[N+](=O)[O-]	-10%	/	-1.1	0	-2
CCOC(=O)c1ccc(NC(=O)CSc2nccn2C)cc1	-5%	14	1.5	9	-9
COC(=O)CS(=O)(=O)c1nnc([C@H](Cc2ccccc2)NC(=O)OC(C)(C)C)o1	2%	-30	69*	-7	4
COc1ccccc1CNC(=O)[C@H](C)N1C(=O)N2CCc3c([nH]c4ccccc34)[C@@]2(C)C1=O	/	/	2.5	-8	/
OC(CN1CCOCC1)CN(c1ccccc1)c1ccccc1 (centres undefined)	-1%	0	2.1	8	-1
CCOC(=O)N1CCC(NC(=O)c2cc(COc3ccc(F)cc3Cl)on2)CC1	/	/	2.1	?	/
COc1ccc(C(CC(=O)NCc2ccccc2)C(C)C)cc1 (centres undefined)	-11%	/	0.1	-10	/

Some of the compounds tested (hit frequency here may not be typical).
